GIRK2 act – activators of human GIRK2 potassium channels. HEK293-GIRK2 thallium flux, Thallos fluorescence. calls only for hits at 25 µM. 63,000 compounds, 0.05% hits;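 active = among the strongest 0.2% of first-round signals and kept after retests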;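 note: first round at about 10 µM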
Target sequence (P48051 whole entry, looked up): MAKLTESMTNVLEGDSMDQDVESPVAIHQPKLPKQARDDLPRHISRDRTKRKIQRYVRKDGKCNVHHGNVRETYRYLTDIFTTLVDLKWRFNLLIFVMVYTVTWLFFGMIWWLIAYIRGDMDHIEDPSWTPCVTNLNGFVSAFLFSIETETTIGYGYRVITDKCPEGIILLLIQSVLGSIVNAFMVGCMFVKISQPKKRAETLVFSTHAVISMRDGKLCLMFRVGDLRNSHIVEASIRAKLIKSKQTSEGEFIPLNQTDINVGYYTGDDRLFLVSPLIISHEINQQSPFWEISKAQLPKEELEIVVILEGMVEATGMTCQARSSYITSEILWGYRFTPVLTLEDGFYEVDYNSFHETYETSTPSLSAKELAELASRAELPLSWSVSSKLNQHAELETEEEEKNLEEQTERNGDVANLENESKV
Calls only; i = inactive. These rows are one share of the data; rates above refer to the full screens.

canonical_smiles	GIRK2 act
O=C(NCC(Cc1cccc(F)c1)N1CCNC1=O)c1ccno1 (centres undefined)	i
N#C/C(=C\c1cc(Cl)cc2c1OCOC2)c1nc2ccccc2s1	i
COc1cccc2cc(C(=O)NCC(C)(O)c3ccco3)oc12 (centres undefined)	i
O=C(Cn1nc(-c2cccs2)ccc1=O)N1CCC(Cc2ccccc2)CC1	i
Cc1ccc([N+](=O)[O-])cc1S(=O)(=O)NC1CC(C)(C)NC(C)(C)C1	i
CSC(N)=NCCC[C@H](N)C(=O)O	i
N#C/C(C(=O)N1CCCCCC1)=C1/SC(Cc2ccccc2Cl)C(=O)N1c1ccccc1 (centres undefined)	i
COc1ccccc1N1CCN(CC(O)=C(C#N)c2nc(-c3ccc(Cl)cc3)cs2)CC1	i
CCOc1ccc(/C=C/C(=O)Nc2ccccc2Cl)cc1	i
CC(C)C(=O)Nc1cc(C(=O)N2CCCC2)cn(C)c1=O	i
CSc1ccc(-c2noc(Cn3cnc4c(cnn4-c4ccc(C)cc4)c3=O)n2)cc1	i
Cn1cccc(C(=O)N2CCc3nc(NC(=O)c4ccoc4)sc3C2)c1=O	i
NS(=O)(=O)c1ccc(CCNC(=O)CCCn2c(=O)[nH]c3ccccc3c2=O)cc1	i
O=C(CCn1c(=S)[nH]c2cc3c(cc2c1=O)OCO3)NC1CCN(Cc2ccccc2)CC1	i
O=C(c1cccc(-n2cnnn2)c1)N1CCN(CCn2ccnc2-c2ccccc2)CC1	i
COc1ccc(-c2nn3ncccc3c2-c2ccnc(Nc3ccc4c(c3)OCCO4)n2)cc1	i
O=C(NCc1ccccc1Cl)C(=O)NCC1CCN(C(=O)c2ccoc2)CC1	i
CCCc1nnsc1C(=O)Nc1cccc2ccc(OC)nc12	i
COc1ccc(CCNc2nccn(-c3cccc(Cl)c3C)c2=O)cc1OC	i
COC(=O)c1ccc(NC(=O)Cn2nc3cc(-c4ccc(OC)cc4)nc(C)n3c2=O)cc1	i
CC(C)CNc1nc2c(c(=O)[nH]c(=O)n2C)n1CC(C)O (centres undefined)	i
CC1=C(C(=O)OC(C)(C)C)C(c2ccccc2F)NC(=O)N1 (centres undefined)	i
O=S(=O)(CCc1ccccc1)NCCCN1CCN(c2ccccc2)CC1	i
COCCc1noc(-c2ccc(=O)n(CC(=O)Nc3ccc(Cl)c(Cl)c3)c2)n1	i
Cc1cc(C)c2nc(N(CCN(C)C)C(=O)CCCS(=O)(=O)c3ccccc3)sc2c1	i
CCOCCn1c(=O)c2c(nc3n(-c4ccccc4CC)c(-c4ccccc4)cn23)n(C)c1=O	i
COC(=O)N1CCN(CCNC(=O)c2cn(C)nn2)CC1	i
CC(C)(Oc1ccc(Cl)cc1)C(=O)N1CCN(CC(O)c2cccs2)CC1 (centres undefined)	i
CC(=O)Nc1ccc(C(=O)N2CCN(CC(O)c3cccs3)CC2)cc1 (centres undefined)	i
CC(C)(C)n1ncc2c(=O)n(CC(=O)N3CCCCC3)cnc21	i
Cc1cccc(OCC(=O)Nc2cc(C3CC3)nn2-c2nc(C)cc(=O)[nH]2)c1	i
O=C(NCC1(c2cccs2)CC1)c1ccc(OC(F)(F)F)cc1	i
Cc1nc(-n2nc(-c3cccs3)cc2NC(=O)CCC2CCCC2)[nH]c(=O)c1C	i
O=C(c1ccsc1)N1CCC2(CC1)OCCCO2	i
CCOc1ccc(NC(=O)c2cn(Cc3ccc(NC(=O)c4ccc(C)cc4)cc3)cn2)cc1	i
O=C(NCc1ccccc1Cl)C(=O)NCC1CCCO1 (centres undefined)	i
Nc1nc(NCC2CCCO2)ncc1[N+](=O)[O-] (centres undefined)	i
O=C(Nc1ccccc1)OC1CCCC(NC(=O)C2(c3ccccc3)CCOCC2)C1 (centres undefined)	i
CCCCN1CCCC1CNC(=O)c1cc(C#N)c2ccccc2c1OC (centres undefined)	i
COc1ccc(C)cc1N1CCn2c1nc1c2c(=O)n(CCc2ccccc2)c(=O)n1C	i
CCCN1C(=O)CCc2cc(NC(=O)c3ccc(OCC)c(OCC)c3)ccc21	i
O=C(CN1CC(c2nc(-c3cnccn3)no2)C1)NCC1CCCO1 (centres undefined)	i
COc1ccc(C(=O)N2CCCC(c3nnc(C)s3)C2)cc1 (centres undefined)	i
O=C(NCCCc1ccccc1)N1CCN(Cc2nc3ccccc3[nH]2)CC1	i
CCCCN1CC(c2nc3ccccc3n2Cc2ccc(Br)cc2)CC1=O (centres undefined)	i
O=C(C1CC1)N1CCN(C(=O)C2COCC(=O)N2Cc2ccccc2)CC1 (centres undefined)	i
COc1ccc(NC(=O)CSc2nc3[nH]ncc3c(=O)[nH]2)cc1OC	i
Fc1ccc(-c2ncn(C3CCNCC3)c2-c2ccnc(Oc3ccc4c(c3)OCO4)n2)cc1	i
COc1ccc(CCNC(=O)CCc2nc3sc4c(c3c(=O)[nH]2)CCC(C(C)(C)C)C4)cc1OC (centres undefined)	i
COc1cc(NC(=O)c2cc3cccc(OC)c3o2)ncn1	i
CNC(=O)Cc1c(C)n(C(=O)c2ccc(Cl)cc2)c2ccc(OC)cc12	i
O=C(CCCSc1ccc(F)cc1)N1CCN(c2nc3ccc([N+](=O)[O-])cc3s2)CC1	i
CC(=O)c1ccc(N2CCN(C(=O)c3snc(-c4ccccn4)c3N)CC2)cc1	i
Cc1noc(C)c1CN1CCN(C(=O)c2cc(-c3ccco3)on2)CC1	i
O=C(Nc1ccc2c(c1)CN(C(=O)C1CC1)CC2)c1cnn(-c2ccccc2)n1	i
CN1CC(c2nc3ccccc3n2Cc2ccccc2)CC1=O (centres undefined)	i
COc1ccc(Nc2nc3ccccc3nc2NS(=O)(=O)c2cccs2)cc1OC	i
CCc1ccc(S(=O)(=O)NCCNC(=O)c2ccc(NC(=O)C3CC3)cc2)s1	i
Fc1ccc(-c2nnc(Cc3nc(-c4ccc(OCc5ccccc5)cc4)no3)o2)cc1	i
Cc1ccccc1OCC(O)Cn1c(N2CCCC(C)C2)nc2c1c(=O)n(C)c(=O)n2C (centres undefined)	i

More entries:
canonical_smiles	GIRK2 act
CS(=O)(=O)c1ccc(CC(=O)N2CCN(c3nc4ccc(OC(F)(F)F)cc4s3)CC2)cc1	i
CCc1ccc(Oc2cc(N3CCC(C(=O)NC4CCCCC4)CC3)ncn2)cc1	i
Cc1csc(SCC2CCN(C(=O)Cc3cccc4ccccc34)CC2)n1	i
COC(=O)c1ccc(C2C(=C(O)c3cccc(OC)c3)C(=O)C(=O)N2c2cc(C)on2)cc1 (centres undefined)	i
O=S(=O)(c1ccccc1)N1CCN(CC(O)C2CC2)CC1 (centres undefined)	i
COc1cccc(C(=O)Nc2nnc(-c3cccs3)o2)c1	i
CCCn1c(-n2nc(C)cc2C)nc2c1c(=O)n(Cc1ccc(OC)cc1)c(=O)n2C	i
CCNC(=O)N1CCN(c2nc3ccccc3s2)CC1	i
C=CCNC(=O)CSc1nnnn1-c1ccccc1C(F)(F)F	i
COC(=O)c1ccccc1NC(=O)C1CN(C(=O)c2cc(C)on2)C1	i
COC(=O)c1scc(-c2ccc(C)cc2)c1S(=O)(=O)Nc1cc(OC)ccc1OC	i
COc1ccc(-c2c(C)c3cc(Cl)ccc3oc2=O)cc1OC	i
Cc1ccccc1-c1noc(CN2N=NC3C(=O)N(c4ccc5c(c4)CCC5)C(=O)C32)n1 (centres undefined)	i
CN(CCO)C(=O)CN1CCN(c2ccccc2)C1=O	i
CCn1c(SCC(=O)Nc2ccccc2C#N)nc2cc(-c3ccccc3)sc2c1=O	i
Cc1c(CNC(=O)c2cccs2)sc2nc(-c3ccc(F)cc3)cn12	i
Cc1ccc(-n2cc(C(=O)NCCCOC(C)C)nn2)cc1	i
Cc1ccc(NC(=O)CSc2nc(-c3cccc([N+](=O)[O-])c3)cs2)cc1	i
O=C(Nc1cc(Cl)ccc1Oc1ccccc1)c1ccc2nccnc2c1	i
CCOC(=O)N1CCN(C(=O)c2cc(=O)c(OCc3ccc(F)cc3)cn2C)CC1	i
O=C(Nc1ccc(-c2nc3ccccc3s2)cc1)c1cccc(S(=O)(=O)N2CCCC2)c1	i
Cc1ccc(C)c(Cn2c(=O)c3c(nc4n(CCCO)c(C)c(C)n34)n(C)c2=O)c1	i
COc1ccccc1N1CCN(S(=O)(=O)c2ccccc2F)CC1	i
O=C(Cn1cc(-c2nc(-c3ccc(Cl)cc3)no2)ccc1=O)NCc1ccccc1	i
Cc1ccc(-n2ncc3c2ncn2c(-c4ccco4)nnc32)cc1	i
Brc1cccc(-c2nnc(Cc3nc(-c4ccc5c(c4)OCO5)no3)o2)c1	i
CCCOc1cccc(C2c3c(oc4cc(OC)ccc4c3=O)C(=O)N2CCN(C)C)c1 (centres undefined)	i
O=C(Cn1ncccc1=O)NCc1ccco1	i
COc1ccc(NC(=O)COc2ccc3c(c2)O/C(=C\c2cccc(OC)c2OC)C3=O)c(OC)c1	i
CN1C(=O)C(C)(C)COc2cc(NC(=O)NCc3ccc(Cl)cc3)ccc21	i
Cc1cc(NC(=O)c2cccc(N3C(=O)CCC3=O)c2)n(-c2nc3ccccc3s2)n1	i
CCCCN1C(=O)CCc2cc(NC(=O)c3cccc(OC)c3OC)ccc21	i
COc1ccc(-c2nnc(C3CCCN(C(=O)c4cc(C)on4)C3)s2)cc1 (centres undefined)	i
CC(C)NC(=O)Nc1ccc(CC(=O)NC2CC2)cc1	i
CSc1cccc(NC(=O)Cn2cc(-c3nc(-c4cnccn4)no3)ccc2=O)c1	i
O=C(CSc1nnc2ccc(C(=O)Nc3cccc(F)c3)cn12)Nc1ccc2c(c1)OCCO2	i
CCc1ccc(S(=O)(=O)N2CCC(CSc3nccn3C)CC2)s1	i
CCSc1nnc(NC(=O)C2CCCN(Cc3nc(-c4cccs4)no3)C2)s1 (centres undefined)	i
O=S(=O)(c1cccnc1)N1CCC(Oc2ccc(C(F)(F)F)cn2)CC1	i
CC1CCN(c2nccnc2Oc2ccc(C(=O)N3CCN(c4ccc(F)cc4)CC3)cc2)CC1	i
CCc1ccc(-n2cc(C(=O)Nc3cc(OC)c(Cl)cc3OC)nn2)cc1	i
CCOC(=O)C1CCCN(S(=O)(=O)CCNC(=O)c2ccc(F)cc2)C1 (centres undefined)	i
Cc1cc(C(=O)N2CCC(CSc3ccccn3)CC2)no1	i
Cc1ccc(S(=O)(=O)c2c(C)cc(C)n(CC(=O)Nc3ccc(Cl)cc3F)c2=O)cc1C	i
CCN1CCc2ncnc(SCC(=O)Nc3ccc(Cl)cc3F)c2C1	i
O=C(O)CCC/C=C\C[C@@H]1[C@@H](/C=C/[C@@H](O)COc2ccccc2)[C@H](O)C[C@@H]1O	i
COc1cc2c(cc1OC)CN(C(=O)CSc1nnc3ccccn13)CC2	i
COCCn1c(SCc2nc(-c3ccc(OC)cc3)no2)nc2ccsc2c1=O	i
CC(C)(C)c1ccc(NC(=O)N2CCC3(CC2)OCCS3)cc1	i
COc1ccccc1C(=O)Nc1ccc(-n2nnn(CC(=O)N3CCOCC3)c2=O)cc1	i
CCOC(=O)C1CCc2sc(NC(=O)C3CCCN(Cc4nc(-c5cccnc5)no4)C3)nc21 (centres undefined)	i
O=C(c1ccc(Oc2ccccc2)cc1)N1C2CCCC1COC2	i
CCc1cnc2c(c1SCc1ccc([N+](=O)[O-])cc1)c(=O)n(C)c(=O)n2C	i
CCOc1ccccc1NC(=O)Cn1nc2c(Sc3cccc(C)c3)nccn2c1=O	i
CCOC(=O)Cn1c(C)cn2c3c(=O)n(C/C=C/c4ccccc4)c(=O)n(C)c3nc12	i
COc1ccccc1-c1csc(-c2nnn(-c3ccc(C)c(C)c3)c2N)n1	i
COc1ccc(N2C(=O)NC3CC2(C)Oc2c(OC)cc(Br)cc23)cc1 (centres undefined)	i
CCSc1nc2n(n1)C(c1ccc(NC(C)=O)cc1)C(C(=O)Nc1ccccc1C)=C(C)N2 (centres undefined)	i
CCc1ccc(S(=O)(=O)Nc2ccc3c(c2)N(S(=O)(=O)CC)CCC3)cc1	i
N[C@@H](CCC(=O)N[C@H](CSN=O)C(=O)NCC(=O)O)C(=O)O	i

Remaining list, next part.
canonical_smiles	GIRK2 act
O=S(=O)(Cc1ccc(C(F)(F)F)cc1)NCCc1csc(-c2ccc(F)cc2)n1	i
COc1cccc(S(=O)(=O)NCC(=O)Nc2ccc(C(C)(C)C)cc2)c1	i
CS(=O)(=O)C1CCN(C(=O)CSCc2ccccc2)CC1	i
Cn1cccc1C(CNC(=O)C(=O)NC1CCCCC1)N1CCc2ccccc2C1 (centres undefined)	i
Cn1cccc1C(CNC(=O)Cc1ccc(Cl)cc1)N1CCCCCC1 (centres undefined)	i
Cc1ccc(-c2cc(CCC(=O)NCCN)nn2-c2ccc(S(C)(=O)=O)cc2)cc1	i

An excerpt from above in order of length of the SMILES, descending.
canonical_smiles	GIRK2 act
Cc1ccc(-c2cc(CCC(=O)NCCN)nn2-c2ccc(S(C)(=O)=O)cc2)cc1	i
N[C@@H](CCC(=O)N[C@H](CSN=O)C(=O)NCC(=O)O)C(=O)O	i
COc1cccc(S(=O)(=O)NCC(=O)Nc2ccc(C(C)(C)C)cc2)c1	i
Cn1cccc1C(CNC(=O)C(=O)NC1CCCCC1)N1CCc2ccccc2C1 (centres undefined)	i
CS(=O)(=O)C1CCN(C(=O)CSCc2ccccc2)CC1	i

Six records drawn at random from the list so far:
canonical_smiles	GIRK2 act
COc1cccc(S(=O)(=O)NCC(=O)Nc2ccc(C(C)(C)C)cc2)c1	i
CS(=O)(=O)C1CCN(C(=O)CSCc2ccccc2)CC1	i
Cn1cccc1C(CNC(=O)C(=O)NC1CCCCC1)N1CCc2ccccc2C1 (centres undefined)	i
O=S(=O)(Cc1ccc(C(F)(F)F)cc1)NCCc1csc(-c2ccc(F)cc2)n1	i
Cc1ccc(-c2cc(CCC(=O)NCCN)nn2-c2ccc(S(C)(=O)=O)cc2)cc1	i
Cn1cccc1C(CNC(=O)Cc1ccc(Cl)cc1)N1CCCCCC1 (centres undefined)	i

From PubChem BioAssay
